Screening results deposited in PubChem BioAssay by several laboratories.
RN4220 kill – growth inhibition of S. aureus RN4220, primary screen, OD600; 330,000 tested, 0.33% active; AID 1259311, 2017; inhibition, % (concentration not given with the values); 16 h;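 active means z-score of -3 or lower and OD600 up to 0.18 on both plates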;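 further: plate controls were untreated cells for no effect and reference antibiotic for full effect; stock transfer was 100 nL into about 80 µL; one replicate is shown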
Mtb hypoxia rep – PubChem AID 1159583; M. tuberculosis hypoxia-regulated fluorescent reporter, fluorescence; fluorescence inhibition, % (test concentration not listed); 300,000 tested, 0.1% active;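 active means 35 to 45% if threefold the growth effect, above 45% if 1.5-fold the growth effect; inactive means the rest, general growth blockers included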;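 further: wells of about 50 µL received 100 nL stock; 0% = vehicle wells and 100% = reference inhibitor wells; whole bacteria with a GFP reporter of the hypoxia response; strong numbers were not always called active; many hits fall short of the cut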
BJeLR viability – MLPCN primary cell-based screen for lethality selective to Ras in HRASV12 cells; 300,000 tested, 0.17% active; BJeLR (HRASV12) viability, CellTiter-Glo ATP luminescence, 48 h; reference of the scale not given here; inhibition, % (concentration not given with the values);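 active means replicate mean above 50%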;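 further: 50 nL library stock added to about 25 µL; numbers are from one replicate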
Bead autofluor – counter-screen for toxin protease inhibitors: compound fluorescence. fluorescence intensity (test concentration not listed). 360,000 tested, 3.1% active. compound autofluorescence counterscreen, microsphere flow cytometry; stronger effect = higher value;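 active means at least 3 SD above the mean of all compounds, about 16000 in these data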;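 further: 100 nL of 1 mM stock went into each well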
Sa ugtP lethal – growth inhibition of ugtP-null S. aureus, primary screen, RN4220 ugtP deletion, OD600; 16 h; some inactives read as strong as hits; growth inhibition, % (concentration not given with the values); 330,000 tested, 0.54% active;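 active means z-score under -3 and OD600 up to 0.15 on both plates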;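 further: plate controls were untreated wells for no effect and antibiotic for full effect; wells of about 80 µL received 100 nL stock; the first replicate is given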
PrP 5UTR inh – inhibition of PrP 5' UTR reporter expression; inhibition, % (concentration not given with the values); cell-based PrP 5' UTR mRNA reporter, plate reader; 340,000 tested, 0.35% active;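 active means every replicate at 50% or more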;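 further: 0 = median of the neutral control wells; tested in H4 reporter cells; numbers are from one replicate; inactives centre near -14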
Mtb hypoxia rep growth – also measured in Mtb hypoxia rep; calls as there; growth inhibition, %; measured here: M. tuberculosis growth (absorbance);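 0% = vehicle and 100% = reference antibiotic; read after six days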
* marks the source's active call; other numbers are inactive results.

Screening CCOc1cc(CN2CCCC(CNC(=O)c3ccc(F)cc3)C2)ccc1OC (stereo not drawn) returned RN4220 kill 1.6, Mtb hypoxia rep 13, BJeLR viability 4, Bead autofluor 6682, Sa ugtP lethal 2, PrP 5UTR inh -9 and Mtb hypoxia rep growth 0.
`CN(C)c1ccc(NC(=O)CN2CCC(N3CCCCC3)CC2)cc1` gave RN4220 kill 5.5, Mtb hypoxia rep -4, BJeLR viability 9, Bead autofluor 9843, Sa ugtP lethal 3, PrP 5UTR inh 1 and Mtb hypoxia rep growth 4.
Screening COc1ccc(S(=O)(=O)N2CCC(C(=O)N3CCOCC3)CC2)cc1 returned RN4220 kill 7.9, Mtb hypoxia rep 9, BJeLR viability 5, Bead autofluor 2243, Sa ugtP lethal 2, PrP 5UTR inh -15 and Mtb hypoxia rep growth 0.
Screening COc1ccc(OC)c(-c2csc(N(CC3CCCO3)C(=O)Cc3ccccc3)n2)c1 (stereo not drawn) returned RN4220 kill 4.3, Mtb hypoxia rep 13, Bead autofluor 4696, Sa ugtP lethal 11, PrP 5UTR inh -16 and Mtb hypoxia rep growth -3.
`CC1SC2(CN3CCC2CC3)NC1=O` (stereo not drawn) gave RN4220 kill 2.9, BJeLR viability 9, Bead autofluor 3503, Sa ugtP lethal 1 and PrP 5UTR inh -11.
Cc1ccc(CSC2=NCCN2C(=O)C(C)Oc2ccccc2)cc1 (stereo not drawn) was read as RN4220 kill 1.4, Mtb hypoxia rep -1, BJeLR viability 6, Bead autofluor 4227, Sa ugtP lethal -3, PrP 5UTR inh -8 and Mtb hypoxia rep growth 13.
`O=C(Nc1ccc(O)c2c(=O)cc(-c3ccccc3Cl)oc12)c1ccc(Cl)c(Cl)c1` gave RN4220 kill 6.6, Mtb hypoxia rep 14, BJeLR viability -2, Bead autofluor 2929, Sa ugtP lethal -3, PrP 5UTR inh -9 and Mtb hypoxia rep growth 4.
COc1ccc2c(c1)OCC1C2N2C(=O)CN(Cc3ccc(C)cc3)C(=O)[C@@]2(C)C1c1ccccc1 (stereo partly drawn) was read as RN4220 kill 1.7, Mtb hypoxia rep 4, Sa ugtP lethal -12 and Mtb hypoxia rep growth 6.
Screening COc1ccc(-c2ccc3c(c2)S(=O)(=O)c2cccc(C(=O)O)c2C3=O)cc1OC returned RN4220 kill 3.7, Mtb hypoxia rep 15, Bead autofluor 2856, Sa ugtP lethal 3, PrP 5UTR inh -8 and Mtb hypoxia rep growth 11.
For C[C@]12c3[nH]c4ccccc4c3CCN1C(=O)C(CC(=O)NCCc1ccccn1)C[C@@H]2C(=O)N1CCCCC1 (stereo partly drawn) the results were RN4220 kill 2.6, Mtb hypoxia rep -6, Bead autofluor 3779, Sa ugtP lethal -1, PrP 5UTR inh -3 and Mtb hypoxia rep growth 10.
CC(C)CC(=O)NCc1ccc(F)cc1 was read as RN4220 kill -0.8, BJeLR viability 0, Bead autofluor 4652, Sa ugtP lethal 1 and PrP 5UTR inh -21.
For COc1cc(C(=O)Nc2ccc3nc4n(c(=O)c3c2)CCCC4)ccc1Br the results were RN4220 kill 7.2, Mtb hypoxia rep -8, BJeLR viability 14, Bead autofluor 3803, Sa ugtP lethal 9, PrP 5UTR inh -11 and Mtb hypoxia rep growth 3.

The closing four compounds of the section before come first, to join the parts:
Screening COc1ccc(-c2ccc3c(c2)S(=O)(=O)c2cccc(C(=O)O)c2C3=O)cc1OC returned RN4220 kill 3.7, Mtb hypoxia rep 15, Bead autofluor 2856, Sa ugtP lethal 3, PrP 5UTR inh -8 and Mtb hypoxia rep growth 11.
For C[C@]12c3[nH]c4ccccc4c3CCN1C(=O)C(CC(=O)NCCc1ccccn1)C[C@@H]2C(=O)N1CCCCC1 (stereo partly drawn) the results were RN4220 kill 2.6, Mtb hypoxia rep -6, Bead autofluor 3779, Sa ugtP lethal -1, PrP 5UTR inh -3 and Mtb hypoxia rep growth 10.
CC(C)CC(=O)NCc1ccc(F)cc1 was read as RN4220 kill -0.8, BJeLR viability 0, Bead autofluor 4652, Sa ugtP lethal 1 and PrP 5UTR inh -21.
For COc1cc(C(=O)Nc2ccc3nc4n(c(=O)c3c2)CCCC4)ccc1Br the results were RN4220 kill 7.2, Mtb hypoxia rep -8, BJeLR viability 14, Bead autofluor 3803, Sa ugtP lethal 9, PrP 5UTR inh -11 and Mtb hypoxia rep growth 3.
For CCCN(CCC)CCNS(=O)(=O)c1ccc2c(c1)CCN2C(=O)C1CCC1 the results were RN4220 kill 2.4, Mtb hypoxia rep 9, BJeLR viability 3, Bead autofluor 13172, Sa ugtP lethal 11, PrP 5UTR inh -9 and Mtb hypoxia rep growth 8.
`CSc1nc2nc3c(cc2c(=O)n1-c1ccccc1C)COC(C)(C)C3` gave RN4220 kill 2.9, Mtb hypoxia rep 3, BJeLR viability 5, Bead autofluor 4687, Sa ugtP lethal 6, PrP 5UTR inh -23 and Mtb hypoxia rep growth 7.
Screening CC(C)C(NS(=O)(=O)c1cccs1)C(=O)N1CCC(C(N)=O)CC1 (stereo not drawn) returned RN4220 kill 4.7, Mtb hypoxia rep 8, Bead autofluor 6218, Sa ugtP lethal 9, PrP 5UTR inh -14 and Mtb hypoxia rep growth 5.
For CC(Sc1ccccc1)C(=O)Nc1ccc(S(=O)(=O)N2CCOCC2)cc1 (stereo not drawn) the results were RN4220 kill -2.3, BJeLR viability 6, Bead autofluor 3406, Sa ugtP lethal 12 and PrP 5UTR inh -1.
Screening COc1ccccc1C(=O)NNC(=O)C12CC3CC(CC(C3)C1)C2 returned RN4220 kill -0.9, Mtb hypoxia rep 3, BJeLR viability -4, Bead autofluor 5323, Sa ugtP lethal 9, PrP 5UTR inh -13 and Mtb hypoxia rep growth 3.
`CC(=O)N1CC(C)Sc2ccc(S(=O)(=O)NCCc3ccccc3)cc21` (stereo not drawn) gave RN4220 kill 0.7, Mtb hypoxia rep 8, BJeLR viability 2, Bead autofluor 5784, Sa ugtP lethal 0, PrP 5UTR inh -29 and Mtb hypoxia rep growth 1.
Screening CC(C)[C@H](NC(=O)Nc1ccccc1F)C(=O)O returned BJeLR viability -2, Bead autofluor 2929 and PrP 5UTR inh -20.
`O=[N+]([O-])c1ccccc1/C=C/CN1CCCCC1CO` (stereo not drawn) gave RN4220 kill 1.7, Mtb hypoxia rep -1, BJeLR viability -3, Bead autofluor 3695, Sa ugtP lethal 7, PrP 5UTR inh -24 and Mtb hypoxia rep growth 2.
`COc1ccc(C(=O)Nc2c(-c3ccccc3)nc3ccccn23)c(OC)c1` gave RN4220 kill -0.2, Mtb hypoxia rep 4, BJeLR viability -6, Bead autofluor 3561, Sa ugtP lethal -3, PrP 5UTR inh -3 and Mtb hypoxia rep growth 4.
C=CCn1c(O)c(Cc2ccc(OCC)cc2)c(=O)[nH]c1=O was read as RN4220 kill 2.8, Mtb hypoxia rep 8, BJeLR viability 4, Bead autofluor 3197, Sa ugtP lethal 12, PrP 5UTR inh -17 and Mtb hypoxia rep growth -5.
Screening N#C/C(=C\c1ccc(O)c([N+](=O)[O-])c1)c1nc2ccccc2s1 returned BJeLR viability -4, Bead autofluor 2559 and PrP 5UTR inh 2.
For CC(C)CN(C(=O)CN(C)C(=O)c1ccco1)c1c(N)n(CC(C)C)c(=O)[nH]c1=O the results were RN4220 kill 4.0, Mtb hypoxia rep -2, BJeLR viability 10, Bead autofluor 4357, Sa ugtP lethal 6, PrP 5UTR inh -14 and Mtb hypoxia rep growth -3.
For Cc1ccc(S(=O)(=O)c2cc(Nc3ccccc3)ccc2O)cc1 the results were RN4220 kill 5.6, Mtb hypoxia rep 6, BJeLR viability -2, Bead autofluor 2938, Sa ugtP lethal -19, PrP 5UTR inh -14 and Mtb hypoxia rep growth 11.
Screening O=C(Cc1c(F)cccc1Cl)NNC(=O)c1ccccc1Cl returned RN4220 kill 4.5, Mtb hypoxia rep 5, Sa ugtP lethal 9, PrP 5UTR inh -11 and Mtb hypoxia rep growth 3.
For COC(=O)c1ccccc1NC(=O)C1(S(=O)(=O)c2ccc(Cl)cc2)CC1 the results were RN4220 kill 1.4, Mtb hypoxia rep 1, BJeLR viability 1, Bead autofluor 4296, Sa ugtP lethal 0, PrP 5UTR inh -12 and Mtb hypoxia rep growth -1.
CCn1cc(C(=O)N[C@@H](CCSC)C(=O)NCCOC)c(=O)c2cc3c(cc21)OCO3 was read as RN4220 kill 0.7, Mtb hypoxia rep 2, BJeLR viability -5, Bead autofluor 3460, Sa ugtP lethal 18, PrP 5UTR inh -13 and Mtb hypoxia rep growth 6.
`O=C(O)C1C2CCC(C2)C1C(=O)Nc1ccc(Cl)c(Cl)c1` (stereo not drawn) gave RN4220 kill 4.0, Mtb hypoxia rep 7, BJeLR viability -5, Bead autofluor 8110, Sa ugtP lethal -4, PrP 5UTR inh -29 and Mtb hypoxia rep growth 10.
Screening C/C(=N\NC(=O)c1ccco1)c1ccc(NC(=O)c2ccccc2)cc1 returned BJeLR viability -1, Bead autofluor 3459 and PrP 5UTR inh -86.
For COc1ccccc1NC(=O)CCN1CCN(C)CC1 the results were RN4220 kill 1.9, Mtb hypoxia rep 11, BJeLR viability -1, Bead autofluor 4755, Sa ugtP lethal 6, PrP 5UTR inh -8 and Mtb hypoxia rep growth 23.
`C/C(=N\OCc1ccc(C#N)cc1)c1cc2ccccc2o1` gave BJeLR viability 0, Bead autofluor 4376 and PrP 5UTR inh -3.
`COc1ccccc1C(=O)NC(=O)COc1ccc(Cl)cc1Cl` gave RN4220 kill 9.3, Mtb hypoxia rep 2, BJeLR viability -12, Sa ugtP lethal 7, PrP 5UTR inh -13 and Mtb hypoxia rep growth 2.
Screening CC1CCc2nc(NC(=O)C3CCCO3)sc2C1 (stereo not drawn) returned RN4220 kill 0.7, Mtb hypoxia rep 2, BJeLR viability -9, Bead autofluor 10244, Sa ugtP lethal -3 and Mtb hypoxia rep growth 6.
Screening C=CCn1c(C)cc(C(=O)COc2ccc(N(C)S(=O)(=O)c3ccc(NC(C)=O)cc3)cc2)c1C returned RN4220 kill 0.3, Mtb hypoxia rep -6, Bead autofluor 5874, Sa ugtP lethal -11 and Mtb hypoxia rep growth 9.
`c1ccc(NCc2ccccn2)cc1` gave RN4220 kill 5.2, Mtb hypoxia rep 7, BJeLR viability -4, Bead autofluor 3726, Sa ugtP lethal -3, PrP 5UTR inh -29 and Mtb hypoxia rep growth 2.
Screening O=C(CSc1nnc(-c2ccccc2)n1-c1ccc(Cl)cc1)NN=Cc1ccccc1C(=O)O returned RN4220 kill 5.7, Mtb hypoxia rep 8, Sa ugtP lethal -2 and Mtb hypoxia rep growth 9.
For CCSc1nnc(-c2cc(Br)ccc2N)c(=O)[nH]1 the results were RN4220 kill 18, Mtb hypoxia rep -6, BJeLR viability -3, Bead autofluor 2107, Sa ugtP lethal 0, PrP 5UTR inh -14 and Mtb hypoxia rep growth 9.
`COc1cc(OC)cc(C(=O)N[C@H](C(=O)Nc2cc(C)cc(C)c2)C(C)C)c1` gave RN4220 kill 5.0, Mtb hypoxia rep 1, Bead autofluor 4512, Sa ugtP lethal 5, PrP 5UTR inh -15 and Mtb hypoxia rep growth -1.
COc1ccc2c(c1)CC/C(=C\C=C\c1ccccc1OC)C2=O was read as RN4220 kill 16, Mtb hypoxia rep 13, BJeLR viability -5, Bead autofluor 8748, Sa ugtP lethal 18, PrP 5UTR inh -42 and Mtb hypoxia rep growth 16.
Screening O=C(c1c[nH]c2ccc(S(=O)(=O)N3CCOCC3)cc2c1=O)N1CCN(c2ccccn2)CC1 returned RN4220 kill -9.4, Mtb hypoxia rep 6, BJeLR viability -9, Bead autofluor 2924, Sa ugtP lethal -3, PrP 5UTR inh -6 and Mtb hypoxia rep growth 5.
For COc1cc(NC(=O)CC(C)=NNC(=O)C(OC)c2ccccc2)c(OC)cc1Cl (stereo not drawn) the results were RN4220 kill 2.4, Mtb hypoxia rep 11, Sa ugtP lethal 6 and Mtb hypoxia rep growth 8.
COCCNC(=O)C(c1ccc(F)cc1)N(CCOC)C(=O)CCC(=O)Nc1ccccn1 (stereo not drawn) was read as RN4220 kill 0.0, Mtb hypoxia rep 12, BJeLR viability 1, Bead autofluor 3685, Sa ugtP lethal -6, PrP 5UTR inh -19 and Mtb hypoxia rep growth 6.
`O=C1NC(=O)C2C1C1(Cl)C(Cl)=C(Cl)C2(Cl)C1(Cl)Cl` (stereo not drawn) gave RN4220 kill 7.5, Mtb hypoxia rep 12, Bead autofluor 2791, Sa ugtP lethal 8, PrP 5UTR inh -6 and Mtb hypoxia rep growth 7.
